Screens (PubChem BioAssay)
NPYLR7 agonist: agonists of mosquito NPYLR7 receptor, primary screen, cell-based, Aedes aegypti, calcium fluorescence, mosquito biting behavior | hit rate 0.15% among 270,000 | HEK293T NPYLR7/Galpha15, GCaMP6s calcium fluorescence | activation, % at 10 µM | Aedes aegypti neuropeptide Y-like receptor 7 (NPYLR7); in the data active means activation above about 40%;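 further: 0% = vehicle and 100% = reference agonist at the receptor; some compounds past the cut are filed as inactive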
NPYLR7 agonist max-min: further read-out of NPYLR7 agonist, marked with its call; activation, %; measured here: Max-Min RFU normalised activation; some inactives read as strong as hits;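 span of the calcium signal over five minutes; 0% = vehicle and 100% = native peptide agonist; compound fluorescence can raise it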
An asterisk follows results filed as active; & = joins results of further samples. Some of the compounds tested. The share of hits here may be higher or lower than overall.

Structure,NPYLR7 agonist,NPYLR7 agonist max-min
COCCCN1C2=C(C(=O)CC(C)(C)C2)C(c2ccccc2)C2=C1CC(C)(C)CC2=O,-4,-11
O=C(CN1CN(c2ccccc2)C2(CCN(C(=O)Nc3ccccc3F)CC2)C1=O)NCC1CCCO1 (stereo not drawn),4,14
Cc1cc(/C=C/c2ccccc2)cnc1N,3,1
Cc1ncc(CN2CCCC(C(=O)Nc3ccccc3Oc3cccnc3)C2)cn1 (stereo not drawn),0,-1
Cc1cccc(-c2cc(N3CCCN(C)CC3)n3nccc3n2)c1,1,1
COc1ccccc1CC(=O)NNC(=O)C(C)Oc1ccc2ccccc2c1 (stereo not drawn),1,1
O=C(c1cccs1)N1CCC(NCCOc2ccccc2Cl)CC1,15,12
COc1ccccc1OCc1cc(C(=O)NCc2ccc3c(c2)OCO3)n[nH]1,4,1
COC(=O)N1CC[C@@]2(C1)[C@H](OC)CN(c1ccccc1)S2(=O)=O,7,21
COc1ccc(S(=O)(=O)NCC2CCCO2)cc1N1CCN(S(=O)(=O)c2ccc(NC(C)=O)cc2)CC1 (stereo not drawn),4,6
CCCCc1nc(SCC(=O)NCc2ccccc2)[nH]c1C,1,-3
COC(=O)C1(C(F)(F)F)N=C(N(C)C)OC(N(C)C)=N1,0,-1
CN(Cc1ccncn1)C(=O)C1(Oc2ccc(Cl)cc2)CCNCC1,8,7
Cc1ccc(C)c(N2CCN(C(=O)c3cccc(F)c3)C(C)C2=O)c1 (stereo not drawn),-5,1
CCc1cnc(-c2ccc(F)c(CO)c2)nc1,11,6
Cc1cccc(-c2nn(CN3CCC(C(=O)c4ccccc4)CC3)c(=S)n2C)c1,10,9
CN(C)CCN1C(=O)C(=O)C(=C(O)c2ccc(Cl)cc2)C1c1ccncc1 (stereo not drawn),2,3
Cc1ncoc1C(=O)N1CC[C@@H](c2ccc3c(c2)OCO3)[C@H](O)C1,9,8
CCCOC(=O)C(C)Sc1n[nH]c(=O)[nH]c1=O (stereo not drawn),3,0
CC1CCC2(CC1)OCC(C(=O)NC1CC1)N2C(=O)c1cccc(C(F)(F)F)c1 (stereo not drawn),-2,11
CCCC1CCC2(CC1)NC(CO)(CO)CO2 (stereo not drawn),5,5
CC(=O)c1cc(C(=O)Nc2cnc3n2CCCC3)c(=O)[nH]c1C,1,1
N#CC(c1ccc(F)cc1)N1CCN(C(=O)CCl)CC1 (stereo not drawn),-9,-1
Cc1c(NC(=O)N(C)Cc2ccco2)cccc1OC(F)F,5,1
COc1cccc(C(=O)CSc2ccc(NC(C)=O)nn2)c1,6,7
CCCCCCC(C)NCCCSC (stereo not drawn),7,8
CCOc1ncccc1CN1CCC(C(=O)Nc2ccccc2C)CC1,4,4
CCn1c2ccccc2n2c(C(=O)OC)c(C)nc12,-12,-19
O=C(Nc1cccc(-c2cccc(Cl)c2)c1)C1CCN(C(=O)c2ccccc2)CC1,1&6,1&2
CCN(C(=O)C(C)Sc1nc2ccccc2c(=O)n1CC)c1ccccc1 (stereo not drawn),1,11
O=C(c1ccc(Cl)cc1)N1CCN(c2nccc(-c3cccc(C(F)(F)F)c3)n2)CC1,-6,-13
CC1(C)C(=O)N(O)C(C)(C)C(=O)N1O,-14,-24
CCc1ccc(-c2nccn2CCN2CCOCC2)o1,7,-3
Cc1cc(=O)c(C(=O)OC(C)C(=O)NCC2CCCCC2)nn1-c1ccccc1 (stereo not drawn),5,4
S=c1[nH]nc(-c2snnc2-c2ccccc2)n1CCCN1CCOCC1,-6,-12
O=C1NC(=O)C2C1C1(c3ccccc3)C(=O)C2(c2ccccc2)C(c2ccc3c(c2)OCO3)=C1c1ccc2c(c1)OCO2 (stereo not drawn),2,-1
Cc1nc(Cn2cnc(-c3ccccc3)c2-c2cccc(C(C)N(C)C)c2)n[nH]1 (stereo not drawn),3,1
CCC(C)C(=O)N1CCCN(c2nc3ccccc3nc2-c2ccccc2)CC1 (stereo not drawn),2,-1
COc1cccc(NC(=O)NCc2nnc(SCc3ccc(F)cc3)n2-c2ccc(C)cc2)c1,-5,5
COc1cc(N2CCC(C(O)c3cccnc3)CC2)ncn1 (stereo not drawn),-1,10
CO[C@H]1C(=O)N(C)C2(CCN(S(=O)(=O)C(C)C)CC2)[C@@H]1C(=O)Nc1ccccc1,2,14
Cc1noc(-c2cccs2)c1C(=O)NC1CC(C)(C)N(C)C(C)(C)C1,5,14
Cc1nc(Nc2ccc(NC(=O)Nc3ccc(F)cc3)cc2)cc(OC(C)C)n1,-6,-5
Cn1c(=O)n(CCC(=O)N2CCN(S(=O)(=O)c3ccc(Cl)c(Cl)c3)CC2)c2ccccc21,1,1
Cc1cc(C)cc(CCC(=O)N2CCC(Oc3ccncc3)CC2)c1,5,3
CCCOC(=O)C1=C(C)NC2=C(C(=O)CCC2)C1c1ccc(SC)cc1 (stereo not drawn),-12,-13
CC(C)OC(=O)Cc1nc(CN2CCOCC2C)cs1 (stereo not drawn),5,-1
Cc1onc(-c2ccccc2)c1C(=O)N1CCC(c2ccccc2C(=O)O)C1 (stereo not drawn),4,3
COc1ccc2c(c1)C1OCCC1C1N2C(=O)C2C(C(=O)O)C3C=CC21O3 (stereo not drawn),4,4
COc1ccc(S(N)(=O)=O)cc1C(=O)N1CCCC(N2CCCC2)C1 (stereo not drawn),6,4
CN(Cc1cscn1)C(=O)NC(c1ccc(Br)cc1)C1CCC1 (stereo not drawn),10,8
O=C1NC(c2ccccc2)=NC1(NS(=O)(=O)c1ccccc1)C(F)(F)F (stereo not drawn),1,-1
COCc1cc(C)nc(OCC(=O)N/N=C\c2ccc(-c3ccc([N+](=O)[O-])cc3)o2)c1C#N,1,-4
O=[N+]([O-])c1cc2c(c(CSc3ncnc4sc5c(c34)CCC5)c1)OCOC2,1,-1
CC(=O)Nc1ccc(Cl)c(C(=O)N2CCN(C)C[C@@H]2c2ccccc2)c1,24,18
O=C(Nc1nnc(SCc2ccc(Br)cc2F)s1)C1CCC1,-2,5
O=C(NCc1ccc2c(c1)OCO2)N1CCC(c2nc(C3CC3)n[nH]2)CC1,8,5
CCCCNC(=O)c1cc(-c2ccc(OC)cc2)nc2cc(C(C)(C)C)nn12,15,18
O=C(O)C(Cc1ccccc1)N1C(=O)/C(=C/c2ccccc2)SC1=S (stereo not drawn),-10,-12
CS(=O)(=O)NCc1ccc(Oc2ccccc2F)c(F)c1,-4,-4

Later entries:
Structure,NPYLR7 agonist,NPYLR7 agonist max-min
S=c1[nH]nc(Cc2cccc3ccccc23)n1N=Cc1ccco1,4,13
CCCS(=O)(=O)N1CCN=C1SCc1cccc(C)c1,30,29
Cc1cc(C(=O)N(CCCN2CCOCC2)c2nc3c(F)cccc3s2)nn1C,1,-1
O=c1[nH]c2cc(Br)c(S(=O)(=O)Nc3ccc(F)cc3F)cc2[nH]1,3,0
NC1CCN(c2ccccc2C(=O)N2CCOCC2)CC1,1,15
CCN(CC)CCN(C(=O)c1cccs1)c1nc2c(F)cc(F)cc2s1,-6,-9
Cc1ccc(CN2CCN(C3CCN(C(C)C)CC3)C(CCO)C2)cc1C (stereo not drawn),-2,-8
O=C(Cn1nc(-c2cccs2)c2sc(N3CCOCC3)nc2c1=O)N1CCc2ccccc21,0,-8
CCOC(=O)c1cc(Cc2ccccc2)sc1NC(=O)/C=C/c1ccccc1,4,6
FC(F)(F)c1ccc(-c2nc(CSCc3cccs3)cs2)cc1,25,27
O=C(c1ccc2ccccc2c1)C1CCCN(S(=O)(=O)Cc2ccccc2)C1 (stereo not drawn),22&5,13&3
CC(C)n1c(=O)c(C(=O)N[C@@H]2C[C@@H]3C[C@H]([C@H]2C)C3(C)C)cc2cccnc21,-17,-29
CCC1CCc2sc(C(=O)NNC(=O)c3ccco3)cc2C1 (stereo not drawn),11,12
COCCN(CCOC)C(=O)CN(c1ccncc1)S(=O)(=O)c1ccccc1,17,8
CCC(C(=O)NC1CCN(c2ccccc2C(=O)NCc2ccccc2F)CC1)c1ccccc1 (stereo not drawn),19,10
Cc1cc(NS(=O)(=O)c2ccc(NS(=O)(=O)c3ccc(F)c(F)c3)cc2)no1,3,0
COc1ccccc1OCC(=O)Nc1ncc(Cc2cccc(C(F)(F)F)c2)s1,-7,-7
CCn1c(C2C=NN(C)C2=N)nc2ccccc21 (stereo not drawn),6,6
O=S(=O)(N=Cc1cc(Br)ccc1O)c1cccs1,8,5
CCN(CCOc1cccc(OC)c1)C(=O)c1cc2ccccc2cn1,-8,-13
O=C(NC1CCC(n2cnnc2)CC1)c1cnnn1-c1ccccc1 (stereo not drawn),14,7
COc1cccc(C(CN2CCN(S(=O)(=O)c3cccs3)CC2)OCc2ccc(C#N)cc2)c1 (stereo not drawn),-2,9
O=c1ccc2ccc(OS(=O)(=O)c3ccc4c(c3)OCCO4)cc2o1,-7,-6
COc1ccc(/C=C/C2=NC(=C/c3cc(OC)c(OC)c(OC)c3)/C(=O)O2)cc1,3,2
Cc1c(C(=O)N2CCN(C(=O)Nc3ccc(Cl)c(Cl)c3)CC2)cc(-c2ccccc2)n1-c1ccccc1Cl,-6,2
O=C(c1cc(C(F)(F)F)cc(C(F)(F)F)c1)N1CCc2ccccc2C1c1ccccc1Cl (stereo not drawn),-2,2
Clc1ccccc1C1CCN(Cc2nc(-c3ccc4c(c3)OCO4)no2)C1 (stereo not drawn),-2,-6
Cc1cc(N2CCN(C3CCCCC3)CC2)n2nc(C(F)(F)F)nc2n1,2,9
COc1ccc(CC(=O)N2CCCC(CNS(=O)(=O)c3ccc(OC)cc3)C2)cc1 (stereo not drawn),18&12,6&14
COC(=O)c1cccc(CC2(C)C(=O)Nc3cccc(Cl)c32)c1 (stereo not drawn),0,1

Entries from the list above that have a furan ring, fused or not (five):
Structure,NPYLR7 agonist,NPYLR7 agonist max-min
Cc1c(NC(=O)N(C)Cc2ccco2)cccc1OC(F)F,5,1
CCc1ccc(-c2nccn2CCN2CCOCC2)o1,7,-3
COCc1cc(C)nc(OCC(=O)N/N=C\c2ccc(-c3ccc([N+](=O)[O-])cc3)o2)c1C#N,1,-4
S=c1[nH]nc(Cc2cccc3ccccc23)n1N=Cc1ccco1,4,13
CCC1CCc2sc(C(=O)NNC(=O)c3ccco3)cc2C1 (stereo not drawn),11,12

(further entries)
Structure,NPYLR7 agonist,NPYLR7 agonist max-min
CCOCCCN(CC(=O)N1CCc2sccc2C1c1ccc(Cl)cc1)C(=O)c1cccs1 (stereo not drawn),-11,-6
Cc1nc(-c2cccc(C(F)(F)F)c2)nc(N2CCN(C(=O)c3cccc4ccccc34)CC2)c1Cc1ccccc1,-5,4
C=CCSc1nnc(NC(=O)CCCCC)s1,23,26
Cn1c(CC2CCS(=O)(=O)C2)n[nH]c1=S (stereo not drawn),6,5
Cc1c(Cl)cccc1N1CN(C(=O)CN(CC(C)C)C(=O)c2ccc(Cl)c(Cl)c2)CC1=O,5,18
O=C(c1cccnn1)N1CCCC(CCc2ccccc2C(F)(F)F)C1 (stereo not drawn),2,2
CCn1cc(C(=O)NCC2CCN(Cc3ccccc3F)C2)cn1 (stereo not drawn),1,-1
O=C(c1cc(-c2csc(NC3CC3)n2)c[nH]1)N1CCCC1,-1,8
COC(=O)CSc1nnc2[nH]c(=O)c3c(n12)CCCC3,-13,-16
CCc1cc(N2CCN(c3ccc(OC)cc3)CC2)nc(SCc2ccc(C(=O)NCc3ccco3)o2)n1,9,7
CN1CCN(Cc2c(O)ccc3cc(Br)ccc23)CC1,-1,21
CC(C)c1cc(C(C)C)n(C2CCN(C(=O)Cn3cnc4c3c(=O)n(C)c(=O)n4C)CC2)n1,24,19
CC(C)(C)C(=O)Nc1cccc(N(CC(N)=O)Cc2ccccc2)c1,23,27
Cc1nsc(NC(=O)N2CCN(c3ccccc3)CC2C)n1 (stereo not drawn),18,9
Cc1sc(N/N=C\C2CC=CCC2)nc1-c1ccccc1 (stereo not drawn),1,35
CCC(NC(=O)NC(C)(C)c1nccs1)c1ccncc1 (stereo not drawn),6,3
Cc1ccc(CN(Cc2ccc(F)cc2)C(=O)CN(CCN2CCOCC2)C(=O)C2CC2)s1,-1,-1
CCC(C(=O)NCc1ccccn1)n1c(=O)n(-c2cccc(OC)c2)c(=O)c2ccc(Cl)cc21 (stereo not drawn),3,10
COc1ccc(CCOc2nc(-c3ccc(Cl)c(Cl)c3)n(-c3ccc(NC(=O)c4ccc([N+](=O)[O-])cc4)cc3)n2)cc1,-8,4
CCCCN(CC)C(=O)C1=NCC(=O)N(c2ccccc2)N1,0,-1
c1ccc(CCC2CCCCN2Cc2nc(-c3ccc4c(c3)OCO4)no2)nc1 (stereo not drawn),-3,-7
COc1ccc(F)cc1C(=O)C1CCCN(C(=O)/C=C/c2cnn(C)c2)C1 (stereo not drawn),19,5

Record cards, as listed above. Order of screens: NPYLR7 agonist	NPYLR7 agonist max-min
O=C(NC1CCC(n2cnnc2)CC1)c1cnnn1-c1ccccc1 (stereo not drawn) is listed with 14	7
CC(C)c1cc(C(C)C)n(C2CCN(C(=O)Cn3cnc4c3c(=O)n(C)c(=O)n4C)CC2)n1 is listed with 24	19
O=C(NCc1ccc2c(c1)OCO2)N1CCC(c2nc(C3CC3)n[nH]2)CC1 is listed with 8	5
Cc1cccc(-c2cc(N3CCCN(C)CC3)n3nccc3n2)c1 is listed with 1	1
